Compound activity: PubChem, ICCB-Longwood Screening Facility, Harvard Medical School
BasE inh = BasE siderophore biosynthesis inhibition. purified BasE, fluorescence polarization binding displacement. inhibition, % (test concentration not listed). actives 0.1% (n = 84,000);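 active means both replicates above 25% with normal brightness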;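 further: 0% = negative plate control signal and 100% = positive plate control signal; stock transfer was 100 nL into about 30 µL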
KSHV LANA nucl = LANA-nucleosome interaction inhibition; actives 0.3% (n = 51,000); FITC-LANA1-23 / chicken nucleosome fluorescence polarization; hits give low values; z-score (no concentration beside the values);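 active means both repeat wells score below -2 in polarization z-score versus plate sample wells, excluding overly bright wells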;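 further: 100 nL library stock added to about 30 µL; numbers are from one replicate; some results filed as inactive read as strong as hits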
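Material: Purified chicken nucleosomes with FITC-labelled LANA N-terminal peptide (1-23) | Reagent: 50 nM FITC-LANA1-23 probe | Medium: TEN-BT buffer, pH 7.5 | Times: 10–45 min incubation at room temperature | Detection: Fluorescence polarization | Replication: Duplicates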
Starred values were filed as active, the others as inactive; . = not tested or not shown; & = joins results of further samples.

SMILES	BasE inh	KSHV LANA nucl
Cc1nn(-c2ccccc2)c(C)c1Sc1ccccc1	-1.1	.
COc1ccc(C(=O)NNc2ncnc3c2cnn3-c2ccc(F)cc2)cc1	0.7	-0.84
CCn1nnnc1SCC(=O)Nc1ccccc1	-1.8	-1.3
CCc1ccc(NC(=O)CCS(=O)(=O)c2ccc3c(c2)NC(=O)CS3)cc1	-1.5	-1
COc1ccc(NC(=O)C(NS(=O)(=O)c2ccc3c(c2)c(=O)n(C)c(=O)n3C)c2ccccc2)cc1 (stereo unspecified)	0.9	-0.37
O=C(O)CC1C(=O)NC(=Nc2ccccc2)N1c1ccccc1 (stereo unspecified)	1.9	0.26
CCOc1ccc(Cc2nccc3cc(OCC)c(OCC)cc23)cc1OCC	-2.8&-3.3	-0.83&-0.64
CC(=O)Nc1ccc(SCC(=O)/C(C#N)=C(\C)N)cc1	-0.8	.
COc1ccccc1NC(=O)N=S1CCN(C(=O)c2ccc(Cl)cc2)CC1	2.5	-0.48
C=CCN(CC=C)C(=O)C[n+]1ccc(C(N)=O)cc1	1.3	.
CNCC(=O)NC(c1ccccc1)c1ccccc1	-1.0	-1
COC(=O)Nc1nnc(COc2cccc(C)c2)s1	-5.2	0.36

Laid out differently: results already given.
Compound,BasE inh,KSHV LANA nucl
Cc1nn(-c2ccccc2)c(C)c1Sc1ccccc1,-1.1,.
COc1ccc(C(=O)NNc2ncnc3c2cnn3-c2ccc(F)cc2)cc1,0.7,-0.84
CCn1nnnc1SCC(=O)Nc1ccccc1,-1.8,-1.3
CCc1ccc(NC(=O)CCS(=O)(=O)c2ccc3c(c2)NC(=O)CS3)cc1,-1.5,-1
COc1ccc(NC(=O)C(NS(=O)(=O)c2ccc3c(c2)c(=O)n(C)c(=O)n3C)c2ccccc2)cc1 (stereo unspecified),0.9,-0.37

More structures follow.
SMILES	BasE inh	KSHV LANA nucl
O=C(O)CCC(=O)Nc1ccccc1N1CCCCC1	4.2	0.038
O=C1Nc2ccccc2/C1=N\N1CCN(Cc2cccc3ccccc23)CC1	3.4	-0.29
CCCCSc1nnc(CSc2ncccn2)n1CCc1ccccc1	0.1	0.21
CC(C)n1c(/C=C/[C@@H](O)C[C@@H](O)CC(=O)O)c(-c2ccc(F)cc2)c2ccccc21	1.7	-0.37&0.53
CCN(CC)C(=O)CSc1nc2ccccc2cc1C	-1.0	-0.097
COc1ccc(NC(=O)CSC2=C(C#N)C(c3ccccc3C)C3=C(CCCC3=O)N2)cc1 (stereo unspecified)	3.2	-0.52
CCC(C(=O)Nc1ccccc1O)c1ccccc1 (stereo unspecified)	0.5	-0.43
S=c1[nH]c2ccc(Cl)cc2o1	8.4	.
Cc1cc(=O)oc2c(/C=N/c3ccccn3)c(O)ccc12	22	-0.2
Cc1c(C)c(C)c(CS(=O)(=O)CC(=O)Nc2ccc(F)c(Cl)c2)c(C)c1C	3.1	.
CN(C)c1ccc(-c2nnc(-c3ccc(S(=O)(=O)C(F)F)cc3)o2)cc1	12	-2
CCC(CO)Nc1ncnc2c1cnn2-c1ccc(Cl)cc1 (stereo unspecified)	-2.1	.
O=C(C(Cc1ccccc1)N1Cc2ccccc2C1=O)N1CCNCC1 (stereo unspecified)	-0.2	0.73
C=CCOc1ccc(CN(C)Cc2cccc(S(=O)(=O)N(C)C)c2)cc1	-0.4	.
COc1cc(OC)c(C(=O)OCC(=O)c2c[nH]c3ccccc23)cc1OC	-1.0	.
Cc1ccc(C(=O)N[C@@H](C)c2nc3ccccc3[nH]2)cc1	-0.2	.
Nc1nnc2c(n1)-c1ccccc1C2=O	1.9	0.76
O=c1c(Cl)c(Cl)cnn1CN1CCN(Cc2ccc3c(c2)OCO3)CC1	1.7	.
CN(CC(=O)NCC1CCCCC1)S(=O)(=O)c1ccc(F)cc1	0.9	.
CCC1=C(c2ccc(C)cc2)S(=O)(=O)NC1=NCC(=O)NC1CC1	-1.9	0.88
C=C(C)CN(CC)C(=O)Cn1c(NCc2ccccc2)nc2ccccc21	1.9	.
Cc1cc(OCCCC(=O)O)cc(C)c1Cl	-0.4	0.26
CN1C(=O)NC(=O)/C(=C\C=C\c2ccccc2)C1=O	0.0	-0.54
COc1cc(C(=O)N2CCN(c3ccc(NCc4ccccc4)nn3)CC2)cc(OC)c1OC	-1.1	0.65
O=C(c1cc2ccccc2oc1=O)N(Cc1ccc2c(c1)OCO2)CC1CCCO1 (stereo unspecified)	1.2	0.29
C1N2CN3CN1CN(C2)C3	-0.6	-0.37&0.31
O=C(Nc1ccc(OC(F)(F)F)cc1)N1CCN(C(c2ccccc2)c2ccccc2)CC1	-2.5	.
C1C2C3C4OC5C3C1C1C2C4C51 (stereo unspecified)	1.8	.
CCc1c(C#N)c(SCC(=O)c2cc(C)n(CCOC)c2C)nc2c1C(=O)CC(C)(C)C2	4.6	-0.61
Oc1[nH]c2ccccc2c1C=NC1CCCC1	1.5	0.52
NS(=O)(=O)c1ccc(-c2ccc(/C=N/NC(=O)c3cccnc3)o2)cc1	2.3	.
NC(=O)CN1C(C(=O)c2ccccc2)=C(N2CCOCC2)c2ccccc2S1(=O)=O	2.5	-0.22
Cc1ccc(-c2csc(/C(C#N)=C(\O)CSc3ncn[nH]3)n2)cc1	0.9	.
COc1ccc(C(=O)C2CCN(CC(=O)NCc3ccc(F)cc3)CC2)cc1	0.5	-0.37
COCCNc1nnc(SCN2C(=O)c3ccccc3C2=O)s1	-0.6	.
CCCn1c(CCC(=O)NCCc2ccc(OC)cc2OC)nc2cccnc21	0.5	-0.1
O=C(CN1CCC(n2cnc3cc(F)ccc32)CC1)NCc1ccc(F)cc1	-0.6	-0.1
O=C(O)c1cnn(-c2ccc(Cl)cc2)c1C1CCNCC1	1.2	-0.16
COC(=O)C(=NNc1ccc(SC(F)(F)F)cc1)C(=O)OC	3.1	.
CC(C)(C)c1csc(NC(=O)CSC2=NCCS2)n1	1.5	-0.063
Cc1nc(-c2c[nH]c(C(=O)O)c2)cs1	7.2	.
O=C(c1ncn[nH]1)N(Cc1cc2ccccc2[nH]c1=O)c1ccccc1	-2.1	1.1
Cc1cccn2c(=O)c(C=C(C#N)C#N)c(N3CCCC3)nc12	-0.6	.
Cc1ccc(S(=O)(=O)NC(=O)Nc2cccnc2)cc1	0.5	.
CC1=CSC2=NC(=O)/C(=C\c3cccn3-c3ccccc3)C(=N)N12	1.7	-1.5
CCC(=O)NC1CCN(C(=S)NC)CC1	0.7	0.25
Cc1ccc(N2C(=O)/C(=C\c3ccc4c(c3)OCO4)N=C2SCC(=O)NCC2CCCO2)cc1 (stereo unspecified)	4.4	.
NS(=O)(=O)c1ccc(Cl)c(C(=O)Nc2ccc(Cl)cc2)c1	0.2	-0.77
CCNc1ncnc2scc(-c3ccccc3)c12	1.2	.
CC(=O)NC(CC(=O)N1CCN(c2ccccc2)CC1)c1ccccc1 (stereo unspecified)	0.7	.
Cc1cc(C)cc(C(=O)NC(=S)Nc2ccc3[nH]c(=O)[nH]c3c2)c1	5.5	-1.3
CCCNS(=O)(=O)c1ccccc1	2.1	0.56
O=c1[nH]nc(CSc2ccc(Cl)cc2)n1-c1ccccc1	-1.7	0.31
CCC(CC)c1nnc(NC(=O)CN2C(=O)C3CC=CCC3C2=O)s1 (stereo unspecified)	3.6	.
CC(=O)N1CCCc2ccc(NC(=O)c3ccccc3)cc21	2.8	-0.27
COc1cc2c(cc1OC)C(c1ccccc1)N(C(=O)COC(=O)C1CC1)CC2 (stereo unspecified)	1.5	.
CCn1c2ccc(Cl)cc2c2cc(Cl)ccc21	1.8	.
CN1C(=O)N(C)C(=O)C(CC(=O)N2CCCc3ccccc32)(CC(=O)N2CCCc3ccccc32)C1=O	2.4	.
O=C1CSC(=O)N1Cc1ccccc1	-0.6	0.85
CC(NC(=O)C1CCCN1C(=O)OCc1ccccc1)c1ccccc1 (stereo unspecified)	-1.2	0.15

Structural class: the compounds so far containing a CF3 group (two)
SMILES	BasE inh	KSHV LANA nucl
O=C(Nc1ccc(OC(F)(F)F)cc1)N1CCN(C(c2ccccc2)c2ccccc2)CC1	-2.5	.
COC(=O)C(=NNc1ccc(SC(F)(F)F)cc1)C(=O)OC	3.1	.

(next part)
SMILES	BasE inh	KSHV LANA nucl
O=C(CC12CC3CC(CC(C3)C1)C2)NCc1ccco1	0.2	-0.18
CCN(CC(=O)NCc1ccc(F)cc1)c1ccc(S(=O)(=O)N(CC)CC)cn1	0.5	.
CCOc1cc(C2c3c(oc4cc(C)cc(C)c4c3=O)C(=O)N2CCCO)ccc1O (stereo unspecified)	1.5	0.34
COC(=O)c1cn(CC(N)=O)c2nc(C)ccc2c1=O	4.5	0.073
Cc1cccc(C(=O)Sc2cccccc2=O)c1	2.5	.
O=C1CCCC(O)=C1C1(O)C(=O)c2ccccc2C1=O	5.6	-1
COC(=O)c1ccc(OC(=O)CCc2nc3cc(S(=O)(=O)N4CCOCC4)ccc3n2C)cc1	-3.6	.
C#CCn1c(O)c(N=NC(=O)c2ccccc2-n2cccc2)c2ccccc21	-1.3	0.44
O=C(c1ccccc1)C1CCN(C(=O)Nc2ccccc2)CC1	-0.3	-0.61
CC1=CC(=C(C#N)C#N)CC(C)(C)C1	-2.8	0.84
Nc1ccnc(C(=O)O)c1	2.1	-0.98
CCC1CCCCN1C1CC(=O)N(c2ccc(NC(C)=O)cc2)C1=O (stereo unspecified)	0.9	-0.22

4 entries from above, set out differently.
> CCNc1ncnc2scc(-c3ccccc3)c12
  BasE inh: 1.2
  KSHV LANA nucl: .

> CCc1c(C#N)c(SCC(=O)c2cc(C)n(CCOC)c2C)nc2c1C(=O)CC(C)(C)C2
  BasE inh: 4.6
  KSHV LANA nucl: -0.61

> CCN(CC)C(=O)CSc1nc2ccccc2cc1C
  BasE inh: -1.0
  KSHV LANA nucl: -0.097

> C1N2CN3CN1CN(C2)C3
  BasE inh: -0.6
  KSHV LANA nucl: -0.37&0.31

The list goes on.
SMILES	BasE inh	KSHV LANA nucl
COc1cc2c(C#N)c(N3CCCCC3)nc3c2c(n1)NC1(N3)C(=O)Nc2ccccc21 (stereo unspecified)	14	.
COc1cccc(C=Nc2cnn(C)c2C(N)=O)c1O	1.3	-0.67
CCc1ccccc1N(C)S(=O)(=O)c1c(C)noc1/C=C/N(C)C	0.0	2
CCCCCCCCCCCCCCCCOP(=O)([O-])OCC[N+](C)(C)C	2.9	-0.39&0.14
S=C(NCc1ccco1)Nc1ccn(C23CC4CC(CC(C4)C2)C3)n1	1.6	-0.043
CCn1c(-c2nonc2NC(=O)c2ccccc2)nc2ccccc21	-0.5	0.89
CCOC(=O)C1=NN(C(=O)c2cccc(OC)c2)C(O)(C(C)(C)C)C1 (stereo unspecified)	-1.1	0.63
NNC(=O)c1csc(Cc2c(Cl)cccc2Cl)n1	-4.5	.
O=C(COc1ccc2c(c1)CCC2)N(Cc1nnc(-c2ccc(Cl)cc2)o1)C1CC1	0.1	.
CCn1cc2nc(SCC(N)=O)n(CCc3ccccc3)c(=O)c2n1	1.1	.
NC(=O)C1CCN(C(=S)NC(=O)C2CC2)CC1	0.9	.
O/N=C1\CCCc2c1[nH]c1ccc(Cl)cc21	4.3	-0.33
CCOc1ccc(CN(C)C(=O)C2CCN(S(=O)(=O)c3ccccc3F)CC2)cc1OC	1.7	.
Cc1onc(-c2c(Cl)cccc2Cl)c1-c1noc(CSc2ccccn2)n1	3.7	-0.099
CCOC(=O)C1=C(CC)Nc2ccccc2N/C1=N\S(=O)(=O)c1ccccc1OC	1.5	.
CCC(=O)C(C#N)c1nnc(-c2ccccc2)s1 (stereo unspecified)	3.3	.
COc1ccc(-c2nsc(NC(=O)CC(C)C)n2)cc1	-1.1	-0.88
O=C1CN(S(=O)(=O)c2cccc(C(=O)O)c2)c2ccccc2N1	-2.1	.
Cn1nnnc1SCC(=O)N1CCCc2ccccc21	1.0	0.73
CC(C)C(NS(=O)(=O)c1cccs1)C(=O)O (stereo unspecified)	1.0	-0.33
CCCCc1ccc(N2C(=O)CS/C2=C(/C#N)S(=O)(=O)c2ccccc2)cc1	-13	.
O=C1C2=C(Nc3ncnn3C2c2ccccc2)c2ccccc21 (stereo unspecified)	1.6	0.064
CC(C)CNC(=S)N1CCCC1	2.0	.
CN(C)C1(CNC(=O)NCC2(N(C)C)CCCCC2)CCCCC1	-1.2	.
CCOc1ccc(C(C)(C)C)cc1S(=O)(=O)Nc1ccc(Cl)cn1	-3.2	2.2
Cc1oc(-c2cccc(Cl)c2)nc1CN1CCCC(C(=O)N2CCN(c3cccc(Cl)c3)CC2)C1 (stereo unspecified)	-0.1	0.48
Cc1ccc(C)n1-c1sccc1C(=O)O	.	-2.1
Cc1ccccc1-c1nnc(SCC(=O)N2CCCc3ccccc32)n1C	1.4	-0.56
O=c1ccn(-c2ccc(F)cc2)nc1-c1ccnc(=S)[nH]1	-1.3	.
NNc1nc(OC(C(F)(F)F)C(F)(F)F)nc(N(c2ccccc2)c2ccccc2)n1	1.4	0.64
Cc1nc2ccccn2c1-c1ccnc(SCC(=O)N(c2ccccc2)C2CCCCC2)n1	1.6	.
C/C(=N\NC(N)=O)c1ccc(NC(=O)c2ccc(F)cc2)cc1	-0.9	-0.41
c1ccc2c(c1)nnn2Cc1ccc(Cn2nnc3ccccc32)cc1	1.6	-0.5
CCN(CC)c1ncnc2ccc(Br)cc12	-1.3	1.2
CC(C)(C)c1cc(CN2CCN(CCC#N)CC2)cc(C(C)(C)C)c1O	0.9	.
COc1ccc2c(c1)c(=O)oc1c(C)c(OC(C(=O)O)c3ccccc3)ccc12 (stereo unspecified)	-0.3	.

Not all compounds are listed; the hit share may differ from the screen's.
